MLL AF4-AF9 inh: inhibitors of human MLL-AF4/AF9 interaction. AID 651704. inhibition, % at 10 µM. hit rate 0.47% among 350,000. AlphaScreen, biotin-AF4 peptide binding to FLAG-AF9. P42568;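 active means every replicate reaching a set inhibition limit, whatever the replicate mean, cut at about 25% in these data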;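 further: 0% = plate neutral control median and 100% = total signal loss; the record names both 10 and 1 µM as test concentration; the first replicate is given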
Target sequence (P42568 whole entry, looked up): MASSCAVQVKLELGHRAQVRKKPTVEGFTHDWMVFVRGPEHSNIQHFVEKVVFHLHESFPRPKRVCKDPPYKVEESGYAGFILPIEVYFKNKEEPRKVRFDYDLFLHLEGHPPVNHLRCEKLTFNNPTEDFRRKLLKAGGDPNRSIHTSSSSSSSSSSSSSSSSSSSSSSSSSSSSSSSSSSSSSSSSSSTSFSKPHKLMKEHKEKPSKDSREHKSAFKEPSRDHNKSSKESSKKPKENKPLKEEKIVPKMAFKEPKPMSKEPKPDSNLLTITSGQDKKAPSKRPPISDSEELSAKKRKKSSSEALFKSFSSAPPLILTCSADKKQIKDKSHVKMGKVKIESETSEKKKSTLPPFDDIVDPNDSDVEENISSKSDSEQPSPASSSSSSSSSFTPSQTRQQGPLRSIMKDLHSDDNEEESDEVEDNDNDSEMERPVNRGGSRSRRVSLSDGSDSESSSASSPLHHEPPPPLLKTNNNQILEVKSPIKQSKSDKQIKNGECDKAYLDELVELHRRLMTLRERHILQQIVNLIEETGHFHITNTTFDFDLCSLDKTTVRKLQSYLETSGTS
E coli growth: blocks Escherichia coli growth. OD600, 23 h; active compounds read low. OD600 absorbance (test concentration not listed). hit rate 0.21% among 330,000. AID 1053175;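 active means OD600 absorbance below the run mean of sample wells minus 3.6 SD, in any replicate, cut at about 0.56 in these data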;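 further: stock transfer was 300 nL into about 60 µL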
FGF22 binding: shifts melting point of recombinant human FGF22 | Q9HCT0 | recombinant FGF22 thermal shift, SYPRO orange fluorescence; percent of sucrose octasulfate shift, DMSO zero | calls only at 9.99 µM | hit rate 1.5% among 340,000;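 active means melting point raised past a set limit in the mean and every replicate; three in four hits are not shown here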
Target sequence (Q9HCT0 whole entry, looked up): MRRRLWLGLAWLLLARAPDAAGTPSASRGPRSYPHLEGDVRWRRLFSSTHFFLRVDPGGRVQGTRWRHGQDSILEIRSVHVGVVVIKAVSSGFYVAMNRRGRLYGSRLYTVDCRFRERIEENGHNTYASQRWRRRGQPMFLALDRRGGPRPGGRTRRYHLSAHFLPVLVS
UCH37 inh: inhibitors of human deubiquitinating enzyme UCH37; Q9Y5K5; purified proteasome/UCH37, Ub-AMC cleavage fluorescence; inhibition, % (test concentration not listed); hit rate 0.33% among 330,000;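 active means mean of two replicates above 20%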;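 further: 0% = compound-free wells with enzyme and 100% = wells lacking proteasome; stock transfer was 100 nL into about 20 µL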
Target sequence (Q9Y5K5 whole entry, looked up): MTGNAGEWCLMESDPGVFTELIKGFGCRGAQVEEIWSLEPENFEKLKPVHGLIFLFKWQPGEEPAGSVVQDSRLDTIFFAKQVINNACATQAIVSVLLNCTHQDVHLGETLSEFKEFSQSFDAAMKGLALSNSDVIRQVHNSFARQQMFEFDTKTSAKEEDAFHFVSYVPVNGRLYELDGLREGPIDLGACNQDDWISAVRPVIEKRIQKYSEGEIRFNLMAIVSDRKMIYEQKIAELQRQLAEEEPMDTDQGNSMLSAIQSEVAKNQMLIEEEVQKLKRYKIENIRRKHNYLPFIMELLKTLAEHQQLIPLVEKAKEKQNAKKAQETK
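System: Proteasome-associated human UCH37 deubiquitinase; Input: 0.15 nM proteasome in added enzyme buffer; Also added: Ub-AMC substrate from 1 µM stock; Incubation: 30 min compound-proteasome preincubation then 25 min substrate reaction, room temperature; Detection: fluorescence, ex 355 nm, em 460 nm; Read-out: % inhibition of Ub-AMC cleavage fluorescence; Benchmarks: no-proteasome and no-compound wells.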
T cruzi inh: blocks replication of Trypanosoma cruzi | T. cruzi beta-gal in NIH3T3, luminescence, 90 h | inhibition, % (concentration not given with the values) | hit rate 1.4% among 300,000 | AID 1885;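 active means mean inhibition across valid replicates above about 55%, limit read from the data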;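 further: signal also drops with host cell toxicity which is not excluded here; 0% = plate median of DMSO wells and 100% = zero luminescence signal; higher percent means less beta-gal luminescence so fewer parasites; stock transfer was 50 nL into about 50 µL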
rRNA inh HTS: inhibitors of bacterial rRNA selective over humanized ribosomes | E. coli WT GFP vs humanized-ribosome RFP mutants, fluorescence, 24 h; active compounds read low; DMSO median 0, no signal -100 | GFP signal change (wild-type ribosome), % (no concentration beside the values) | hit rate 1.6% among 350,000;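 active means significant combined selectivity score with lowered wild-type GFP, culture density cut under 30%, mutant RFP and density less affected; inactive means any of these conditions unmet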; further: one replicate is shown; some compounds called inactive have numbers as strong as hits
A1 inh: inhibitors of the anti-apoptotic protein A1, read as caspase activation; MEF A1-2A-BIM cells, Caspase-Glo 3/7 luminescence, 3 h; percent of clofoctol response, vehicle zero; caspase activation, % (no concentration beside the values); hit rate 0.066% among 330,000; AID 2462;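 active means over half of replicate activation scores above 10%, or exactly half above 10 with the replicate mean above 10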;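 further: wells of about 30 µL received 50 nL stock; many hits fall short of the cut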
Beta cell apopt: blocks beta cell apoptosis; protection from apoptosis, % (concentration not given with the values); hit rate 0.8% among 300,000; INS-1E cytokine-induced death, ATP luminescence, 48 h; percent of positive-control rescue, neutral wells zero;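 active means all replicates at 75% or more, or half of them and the mean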;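 further: 0% = cytokine-treated negative control wells and 100% = positive control rescue; higher means more ATP so stronger rescue from cytokine killing; wells of about 40 µL received 100 nL stock; the first replicate is given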
rRNA inh HTS OD600: second read-out of rRNA inh HTS, no call of its own (marks repeat the call); OD600 change, %; measured here: OD600 growth;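 optical density of the mix in the first replicate; 0 = DMSO median and -100 = no signal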
rRNA inh HTS RFP: second read-out of rRNA inh HTS, no call of its own (marks repeat the call); RFP signal change, %; measured here: RFP humanized mutant strains;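 first replicate; 0 = DMSO median and -100 = no signal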
The depositor's hits bear a star; i = inactive; nt = not tested or not shown. Only part of the results is shown. The share of hits here may be higher or lower than overall.

SMILES	MLL AF4-AF9 inh	E coli growth	FGF22 binding	UCH37 inh	T cruzi inh	rRNA inh HTS	rRNA inh HTS OD600	rRNA inh HTS RFP	A1 inh	Beta cell apopt
Cc1cc(F)ccc1NCC(=O)Nc1ccc(Br)cc1C	nt	0.68	nt	0.4	-1	nt	nt	nt	1.4	-14
COc1ccccc1N1CCN(C(=O)COc2ccc(S(=O)(=O)NC(C)C)cc2)CC1	-1.6	0.69	i	0.4	-8	9	7	1.9	-0.3	5
Cc1c(NC(=O)c2cc(-c3ccc(Cl)c(Cl)c3)on2)c(=O)n(-c2ccccc2)n1C	0.9	0.69	i	2.1	8	6	10	24	0.4	2
Cc1nn(CC(=O)NCc2ccccc2Cl)c(C)c1[N+](=O)[O-]	nt	0.63	nt	4.1	0	15	19	-0.1	1.4	0
O=C(C1CCCO1)N1CCN(S(=O)(=O)c2cc(C(F)(F)F)ccc2Cl)CC1 (centres undefined)	-1.9	0.66	nt	4.9	nt	6	5	-0.4	nt	nt
COc1ccc(OC)c2sc(N3CCN(C(=O)c4ccc5ncsc5c4)CC3)nc12	2.3	0.63	i	-1.1	22	-13	-26	1.9	1.0	-5
O=S(=O)(NCCCCNS(=O)(=O)c1c(F)cccc1F)c1ccc2c(c1)OCCO2	-1.9	0.69	i	0.0	nt	-2	-2	6.7	0.3	-4
Cc1ccc(N2C(=O)N(CC(=O)Nc3ccccc3C)C(=O)C2C)cc1 (centres undefined)	-7.7	0.67	i	-0.2	12	3	-2	-0.5	2.5	-1
Cc1c(NC(=O)C(C)Oc2cccc(F)c2)c(=O)n(-c2ccccc2)n1C (centres undefined)	-7.2	0.67	i	0.1	nt	2	3	-3.0	-0.7	-1
COC(=O)N1C(=O)[C@](CC(C)C)(c2ccccc2)N1C(=O)OC	nt	nt	i	nt	-2	11	10	0.8	0.3	-11
CS(=O)(=O)c1nc([N+](=O)[O-])nn1CCCc1ccccc1	nt	0.69	nt	2.2	-4	nt	nt	nt	-0.5	-78
N#CCSc1nc(-c2ccccc2)cs1	nt	0.73	nt	-0.4	-4	nt	nt	nt	-1.6	-8
Cc1ccc(C)c(NS(=O)(=O)c2ccc3oc(=O)ccc3c2)c1	-1.9	0.68	i	3.1	11	-17	-17	-7.6	-0.1	-1
CCc1ccc(NC(=O)C(C)Sc2ccc(S(=O)(=O)N3CCN(C)CC3)cn2)cc1 (centres undefined)	1.2	0.69	i	3.1	nt	-5	-11	0.9	0.5	2
O=C(CCCN1C(=O)/C(=C\c2cccs2)SC1=S)Nc1ccc(C(=O)O)cc1	-0.1	0.64	i	5.7	5	1	0	-0.4	0.0	4
O=C(N/N=C\c1ccc([N+](=O)[O-])s1)c1cncc(Br)c1	1.0	nt	i	nt	54	14	5	1.3	-0.9	84*
COc1cccc(/C=N/NC(=S)Nc2cccnc2)c1	-0.3	nt	i	nt	2	-6	5	-0.1	-0.9	1
COc1cc(/C=C2/C(=O)NN(c3ccc(Cl)c(Cl)c3)C2=O)cc([N+](=O)[O-])c1O	4.1	0.67	i	22*	2	-16	-21	5.7	0.7	-8
COc1ccc(C(=O)Nn2c(SCC(=O)NCc3ccco3)nc3ccccc3c2=O)cc1	nt	0.68	nt	1.1	-4	nt	nt	nt	-0.6	6
O=C(CCS(=O)(=O)c1ccc(Cl)cc1)Nc1nc(-c2ccncc2)cs1	1.4	0.67	i	-0.6	5	3	5	1.2	0.5	-22
Cc1cc(=O)[nH]c(SCC(=O)N2CC3(C)CC2CC(C)(C)C3)n1 (centres undefined)	-1.0	0.65	i	0.4	nt	-6	0	3.0	0.1	2
Cc1cc(=O)[nH]c(SCC(=O)NCCC2=CCCCC2)n1	-1.9	0.71	i	7.4	-6	8	4	-4.5	0.6	2
O=C(c1cccc(F)c1)N1CCCC(C(=O)N2CCCC2)C1 (centres undefined)	nt	0.71	nt	0.1	-8	nt	nt	nt	1.2	-5
CN1CCN(C(=S)c2ccc(Br)cc2)CC1	2.7	0.67	i	-0.1	19	6	4	-2.0	0.3	0
Cc1ccc(NC(=O)CN(C)Cc2cc(=O)n3ccsc3n2)cc1	3.1	0.66	i	-0.3	-2	6	2	-1.3	0.0	-3

Three compounds from above, sorted by the number in rRNA inh HTS, smallest number first.
SMILES	rRNA inh HTS
COc1cccc(/C=N/NC(=S)Nc2cccnc2)c1	-6
Cc1ccc(NC(=O)CN(C)Cc2cc(=O)n3ccsc3n2)cc1	6
Cc1cc(=O)[nH]c(SCC(=O)NCCC2=CCCCC2)n1	8

Back to the main list with the 2 entries that preceded the break.
SMILES	MLL AF4-AF9 inh	E coli growth	FGF22 binding	UCH37 inh	T cruzi inh	rRNA inh HTS	rRNA inh HTS OD600	rRNA inh HTS RFP	A1 inh	Beta cell apopt
CN1CCN(C(=S)c2ccc(Br)cc2)CC1	2.7	0.67	i	-0.1	19	6	4	-2.0	0.3	0
Cc1ccc(NC(=O)CN(C)Cc2cc(=O)n3ccsc3n2)cc1	3.1	0.66	i	-0.3	-2	6	2	-1.3	0.0	-3
CC(C)OCCCNC(=O)C1CCN(S(=O)(=O)c2ccc3nc4c(c(C(=O)O)c3c2)CCCCC4)CC1	-1.4	0.7	i	-0.4	4	8	13	-2.3	-0.4	-2
CCC(=O)Nc1cccc(NC(=O)c2ccccc2Br)c1	-4.1	0.61	i	1.8	2	-12	2	13	1.0	1
COc1cc(/C=N/NC(=O)c2c(-c3c(Cl)cccc3Cl)noc2C)ccc1OCC(N)=O	-0.8	nt	i	nt	2	-1	-8	6.6	nt	nt
CCc1nnc(NC(=O)C2CCCN(c3nc4ccccc4s3)C2)s1 (centres undefined)	nt	0.75	nt	-2.6	18	nt	nt	nt	0.5	-8
CC(C)c1ccc(OCC(O)CN2CCCC2)cc1 (centres undefined)	-3.2	0.72	i	4.5	-23	24	19	2.4	0.9	-8
Cc1ccn2c(C(=O)CSc3ccccc3)c(C)nc2c1	-2.3	0.67	i	-0.2	-3	4	11	0.0	0.4	-1
C=CCNc1nc2ccccc2nc1NS(=O)(=O)c1ccc(F)cc1	2.6	0.68	i	-75	0	-9	-9	1.5	0.1	4
COC(=O)c1sc(N)c(C(=O)OC)c1Cn1ncc(Cl)c(Cl)c1=O	2.5	0.68	i	7.4	-26	4	1	8.5	0.3	-14
CCN(CC(=O)Nc1ccc(NC(C)=O)cc1)C(=O)c1cn(-c2ccccc2)nc1-c1cccs1	-2.4	0.68	i	0.8	nt	-11	-23	-4.5	nt	nt
Cc1ccc(C2=NS(=O)(=O)N(C)C(C(=O)Nc3ccc(F)cc3F)=C2)cc1	-3.9	0.7	i	4.9	-4	8	2	1.4	1.3	-4
COc1ccc(-n2c(O)c(/C=N/NS(=O)(=O)c3ccc(C)cc3)c3ccccc3c2=O)cc1OC	nt	nt	nt	-7.3	33	nt	nt	nt	1.0	-10
O=C(NCc1ccncc1)C(F)(F)C(F)(F)C(=O)NCc1ccncc1	nt	0.7	nt	6.2	-18	nt	nt	nt	0.1	-3
CC(=O)Nc1ccc(NC(=O)CCN2C(=O)C3CC=CCC3C2=O)cc1 (centres undefined)	-2.6	0.69	i	0.0	nt	nt	nt	nt	2.2	0
COCCSc1ccccc1C(=O)Nc1cccnc1	nt	0.71	nt	2.0	4	nt	nt	nt	0.9	-6
COc1ccccc1N1CCN(CCCNC(=O)Nc2ccccc2C)CC1	nt	0.73	nt	7.8	4	nt	nt	nt	0.0	-1
O=C(Nc1ccc(Cl)cc1)c1ccc2snnc2c1	0.4	0.74	i	1.4	-7	3	-2	-1.0	-1.7	5
O=C(CSc1nccc(-c2ccc(Br)cc2)n1)NCCc1ccccc1	-6.1	0.76	i	3.9	11	5	12	-2.0	0.5	nt
NC(=O)c1cnn(-c2cc(Oc3ccccc3)ncn2)c1N	-2.3	nt	i	nt	-11	23	16	0.6	-2.0	-3
Cc1onc(-c2ccc(Cl)cc2Cl)c1C(=O)/C=C/N(C)C	-2.2	0.63	i	9.0	-4	8	5	2.3	0.3	5
CCOC(=O)Nc1ccc(S(=O)(=O)Nc2cc(C)nc(C)n2)cc1	nt	0.66	nt	2.9	-5	nt	nt	nt	0.5	-3
CCOC(=O)N1CCC(N2C(=O)c3ccccc3C2Nc2ccc3c(c2)OCCO3)CC1 (centres undefined)	13	0.72	i	6.9	7	-3	-3	0.1	0.7	-4
O=C(NN1c2ccccc2CCc2ccccc21)c1ccccc1Br	nt	0.73	nt	-0.3	-20	nt	nt	nt	-0.6	16
CCOC(OCC)c1nc(N)[nH]c(=O)c1CCCCc1ccccc1	0.3	0.67	i	1.5	nt	-1	-27	-6.5	nt	nt
CC1CCCCC1NC(=O)CCc1nc2sc3c(c2c(=O)[nH]1)CCCC3 (centres undefined)	-1.8	0.64	i	-1.0	10	3	11	1.2	0.5	-2
CC1(C)CC(NC(=S)Nc2ccc(S(N)(=O)=O)cc2)CC(C)(C)N1	-2.1	0.7	nt	5.4	-21	16	12	3.6	0.4	-5

Carrying on:
SMILES	MLL AF4-AF9 inh	E coli growth	FGF22 binding	UCH37 inh	T cruzi inh	rRNA inh HTS	rRNA inh HTS OD600	rRNA inh HTS RFP	A1 inh	Beta cell apopt
COc1ccc(Cc2nc3ccc(S(=O)(=O)N4CCOCC4)cc3[nH]2)cc1OC	nt	0.71	nt	-5.4	-5	nt	nt	nt	-0.3	-4
CCOC(=O)Cc1csc(SC(C)C(=O)NC2CCCCC2C)n1 (centres undefined)	0.7	nt	i	nt	1	9	14	0.8	0.9	-3
c1ccc2cc(CCO[C@H]3CCCCO3)ncc2c1	-3.9	nt	i	1.6	nt	9	9	2.4	-0.5	0
O=C(NCCC1CCCCN1S(=O)(=O)c1ccccc1)C(=O)NCc1ccccc1 (centres undefined)	-8.9	0.69	i	3.0	4	7	17	0.7	-0.2	2
COCCNC(=O)/C=C/c1c(Cl)cccc1Cl	1.8	0.71	i	5.3	2	4	6	-2.4	-0.6	-4
CCCC(=O)Nc1cccc2c1CCCC2	nt	0.66	nt	-1.2	-2	nt	nt	nt	0.3	-5
CC(=O)Oc1ccccc1N(C(C)=O)S(=O)(=O)c1ccc2ccccc2c1	-1.0	0.63	i	0.4	-23	1	-9	2.4	-1.0	nt
CC(C)(C)c1ccc(NC(=O)c2ccsc2)cc1	-1.7	0.65	i	6.4	20	-11	-15	-2.5	-6.6	10
COc1ccc(CNC(=O)CSc2nnc3nc(C)cc(C)n23)cc1OC	-1.3	0.66	i	2.3	0	-16	-21	3.3	0.4	-6
CCCn1c2ccc(F)cc2c2nnc(SCCN3CCCCC3)nc21	2.1	0.64	i	8.3	53	-8	10	0.2	-0.4	13
CCCCN(C(=O)NC(=O)Nc1cccc(C)c1C)S(C)(=O)=O	-7.3	0.7	i	0.9	-6	6	9	7.5	0.4	nt
